Bioassay records: PubChem BioAssay, National Center for Advancing Translational Sciences (NCATS)
Vaccinia mCherry: qHTS for Stage-Specific Inhibitors of Vaccinia Orthopoxvirus: mCherry Reporter Primary qHTS | Vaccinia virus mCherry reporter infection, fluorescence; about a quarter of the inactives have no number | Potency, µM (doses to about 36.5 µM), for inactives: at the top dose activity change, negative = inhibition, hits mostly inhibitors | 310,000 compounds, 0.63% hits; active = well fitted inhibition curve with a large enough effect; inconclusive = small, poorly fitted or top-dose-only effect; inactive = no such curve, though single readings can be large or run the other way; tested in A549 cells; note: nearly all actives have a fitted effect of over 35% in size; inactives centre near -10
VACV Venus inh: qHTS for Stage-Specific Inhibitors of Vaccinia Orthopoxvirus: Venus Reporter Primary qHTS. Potency, µM (series often up to 36.5 µM), without a hit: at the highest dose activity change, negative = inhibition, actives largely listed as inhibitors. AID 720580, 2013. Vaccinia virus Venus reporter expression, fluorescence. 330,000 compounds, 0.46% hits; active means well fitted inhibition curve with a large enough effect; inconclusive means small, poorly fitted or top-dose-only effect; inactive means no such curve, though single readings can be large or run the other way; tested in A549 cells; note: nearly all actives have a fitted effect of over 30% in size; inactives centre near -10
* = called active by the depositor; i = inactive; ? = inconclusive; / = not tested or not shown; & = joins results of further samples; [ ] = remark or other dose. % is set by controls: 0 for no effect and ±100 for the full control effect; potency is the fitted concentration of half-maximal effect.

SMILES	Vaccinia mCherry	VACV Venus inh
C[C@H](Nc1ncnc2sc3c(c12)CCC3)C(=O)O	/	-9%
CCOC(=O)c1[nH]c(C)c(C(=O)Nc2ccc3c(c2)OCCO3)c1C	i	-14%
COC1OC(COC(=O)CNC(=O)OC(C)(C)C)C(O)C(O)C1O (centres undefined)	i	4%
O=C(Cn1c(=O)n(-c2ccc(F)c(Cl)c2)c(=O)c2sc3ccccc3c21)NC1CCCC1	-9%	4%
CN(C)/C=C(\C(=O)c1ccccc1)c1nnnn1-c1ccc(F)cc1	i	-12%
Cc1cc2c(cc1S(=O)(=O)NCc1ccc(F)cc1)OCCN2C	-12%	-2%
Cc1ccc(-n2c(C)nc3c(cnn3-c3ccc(F)cc3)c2=O)cc1	-16%	-19%
O=C(COC(=O)Cc1ccc(S(=O)(=O)N2CCOCC2)s1)Nc1ccccc1Cl	-12%	-2%
N#CCC(=O)Nc1ccc(C(=O)NNC(=S)NC2CC2)cc1	i	-13%
CCOC(=O)N1CCC(N(CCOC)C(=O)Nc2ccc(CC)cc2)CC1	i	-10%
C#CC[N+]1(CC#Cc2cccc(C)c2)CCCCC1	-21%	-7%
Cc1ccc(S(=O)(=O)Oc2ccccc2[N+](=O)[O-])cc1	?	-1%
COC(=O)N1CCCCC1c1cc(C(=O)NCc2cccnc2)no1 (centres undefined)	4%	-2%
Cc1ccc(S(=O)(=O)N(CC(=O)N2CCc3ccccc3C2)c2ccc(Cl)c(Cl)c2)cc1	-20%	-17%
O=C(CN1C(=O)COc2ccc(S(=O)(=O)N3CCCCC3)cc21)NCc1ccccc1Cl	-14%&-1%	-9%&-5%
CC1CCc2nc(/C(C#N)=C/c3cccnc3)sc2C1 (centres undefined)	-18%	-4%
CCC1CCCCN1CCCNC(=O)CN1C(=O)CSc2ccc(S(=O)(=O)N3CCC(C)CC3)cc21 (centres undefined)	-13%	-6%
Cc1ccc(CNC(=O)C(=O)NCC2OCCN2S(=O)(=O)c2ccc(Cl)cc2)cc1 (centres undefined)	-16%	-24%
CCCCNc1nc(Oc2ccc(OCC)nn2)nc(N2CCOCC2)n1	-6%	3%
COCCCn1cnc2c(c1=O)c1nc3ccccc3nc1n2-c1ccccc1	/	4%
COc1ccccc1N1CCN(c2nc(CNC(=O)c3ccccc3F)nc3ccccc23)CC1	-15%	7%
O=C(COC(=O)c1ccccc1Cc1ccccc1)NC1CCS(=O)(=O)C1 (centres undefined)	i	-20%
CC1(C)N=C(c2ccc(Cl)cc2Cl)C(=O)N1	-15%	-4%
CCCn1c(=O)c2sccc2n2c(CCCC(=O)Nc3ccc(Oc4ccc(Cl)cc4)cc3)nnc12	-11%[7.34 µM]	-6%[7.34 µM]
CC(=O)NC(c1ccco1)c1ccc2cccnc2c1O (centres undefined)	/	?

Seven structures from above, ordered by count of non-hydrogen atoms, lowest first.
SMILES	Vaccinia mCherry	VACV Venus inh
CC1(C)N=C(c2ccc(Cl)cc2Cl)C(=O)N1	-15%	-4%
Cc1ccc(S(=O)(=O)Oc2ccccc2[N+](=O)[O-])cc1	?	-1%
Cc1cc2c(cc1S(=O)(=O)NCc1ccc(F)cc1)OCCN2C	-12%	-2%
CN(C)/C=C(\C(=O)c1ccccc1)c1nnnn1-c1ccc(F)cc1	i	-12%
CCOC(=O)N1CCC(N(CCOC)C(=O)Nc2ccc(CC)cc2)CC1	i	-10%
Cc1ccc(CNC(=O)C(=O)NCC2OCCN2S(=O)(=O)c2ccc(Cl)cc2)cc1 (centres undefined)	-16%	-24%
Cc1ccc(S(=O)(=O)N(CC(=O)N2CCc3ccccc3C2)c2ccc(Cl)c(Cl)c2)cc1	-20%	-17%

The list goes on:
SMILES	Vaccinia mCherry	VACV Venus inh
COc1ccc(C(=O)NCC(c2cccnc2)N2CCN(c3ccccc3OC)CC2)cc1 (centres undefined)	-15%	-30%
COc1ccc2cc(CCl)c(Cl)nc2c1	-7%	-1%
CCn1c(SC(C)C(=O)NCc2ccco2)nnc1-c1ccccc1 (centres undefined)	-16%	-9%
COCc1c(C(=O)NC2CCCC2)cnn1-c1nccc(-c2ccco2)n1	-14%	-9%
CCN(CC)C(=O)C1CCCN(C/C=C/c2ccccc2[N+](=O)[O-])C1 (centres undefined)	-5%	0%
NS(=O)(=O)c1ccc(NC(=O)CSc2nc3c(cnn3-c3ccccn3)c(=O)[nH]2)cc1	-14%	-3%
Cc1csc(NC(=O)CSc2nncc(=O)n2N)n1	i	2%
COC(=O)c1sc(N)c(C(=O)OC)c1COC(=O)CCNS(=O)(=O)c1ccc(C)cc1	-8%	-21%
Cc1ccc(NC(=O)CN2C(=O)N/C(=C/c3cccn3-c3ccc(C(=O)O)cc3)C2=O)cc1	-4%	-13%
O=C(N/N=C/c1ccccc1[N+](=O)[O-])C(=O)N1CCCC1	-12%	-2%
CCn1c(CN2c3ccccc3Sc3ccccc32)n[nH]c1=S	-14%	3%
CCCCOCCCNC(=O)C[C@@H]1C[C@@]2(C(=O)OC)CC(C)(C)CC=C2N(Cc2ccc3c(c2)OCO3)C1=O	-19%	?
Cn1nnnc1SCCCNCc1ccc(Cl)cc1	-5%	-8%
NS(=O)(=O)c1ccc(NNC(=O)c2ccc(Br)o2)c([N+](=O)[O-])c1	?	-13%
O=C(N/N=C/C=C\c1ccco1)c1ccccn1	-2%	6%
O=C1CC2(CCN(C(=O)C(=O)c3c[nH]c4ccccc34)CC2)Oc2ccccc21	-23%	-11%
COc1cccc(-c2ccc(NC(=O)C3CCCN(Cc4cnn(C(C)C)c4)C3)cc2)c1 (centres undefined)	-7%	?
Cc1nc(NC(=O)C(C)(C)C)sc1C(=O)Cn1cc(-c2ccc(C(C)(C)C)cc2)nn1	-14%	-13%
O=C(NCc1cccnc1)c1ccc2sc([C@@H]3O[C@H](CO)[C@H](O)[C@H](O)[C@H]3O)nc2c1	5%	4%
COc1ccc(-c2nc(C#N)c(N3CCN(c4cccc(Cl)c4)CC3)o2)cc1OC	-15%	-7%
CC(O)(c1ccc(F)c(F)c1)c1nc(-c2cnc3ccccc3c2)cs1 (centres undefined)	-2%	-3%
CC1=NN(C(=O)c2ccc(Br)cc2)C(O)(C(F)(F)OC(F)(F)F)C1 (centres undefined)	?	?
COc1ccc(C(=O)NCc2nnc(SC)n2-c2ccccc2C)c(OC)c1OC	-9%	10%
Cc1ccccc1CN1CCC(Oc2ccc(C(=O)N3CCCC3)cc2)CC1	-17%	-4%
CCCCn1nnnc1C(CCc1ccccc1)N1CCC2(CC1)C(=O)NCN2c1ccccc1 (centres undefined)	i	-7%

Part of the list above, with two lines to a compound:
Screens in order: Vaccinia mCherry, VACV Venus inh
CCn1c(CN2c3ccccc3Sc3ccccc32)n[nH]c1=S
  -14%, 3%
CCCCOCCCNC(=O)C[C@@H]1C[C@@]2(C(=O)OC)CC(C)(C)CC=C2N(Cc2ccc3c(c2)OCO3)C1=O
  -19%, ?

Next section:
SMILES	Vaccinia mCherry	VACV Venus inh
O=S(=O)(NCc1ccccc1)NCc1cccc(C(F)(F)F)c1	-6%	-20%
O=C(CSc1nc2ccccc2nc1Cc1ccccc1)NCc1ccccc1Cl	-2%	4%
CCOc1cc(N2CCOCC2)c(OCC)cc1NC(=O)COC(=O)c1cc(C)oc1C	/	-13%
O=[N+]([O-])c1ccc(O)c(C2=NNC(c3ccccc3F)C2)c1 (centres undefined)	?	11µM*
CC(=O)c1cccc(NC(=S)NC(=O)c2cccc(Cl)c2)c1	-13%	-3%
Cc1ccccc1NC(=S)N(CCCN1CCOCC1)Cc1cccnc1	i	-6%
Clc1ccc(Cl)c(OCCCCNCc2ccccc2)c1	?	?
CCOC(=O)C1CCCN(CCC(=O)Nc2ccc(C)c(C)c2)C1 (centres undefined)	0%	1%
NC(=O)COC(=O)c1ccccc1OCc1ccccc1Cl	-16%	-8%
COc1ccc(NC(=S)Nc2ccc(S(=O)(=O)N3CCCCC3)cc2)cc1	?	-13%
CC(SC(C)C(=O)NN=Cc1c[nH]c2ccccc12)C(=O)NN=Cc1c[nH]c2ccccc12 (centres undefined)	-10%	-18%
Cc1csc(SC(C)C(=O)Nc2ccc(F)cc2Cl)n1 (centres undefined)	-18%	-13%
CCOC(=O)C(O)(c1ccc(NC(=S)NC(=O)c2ccc(Cl)cc2Cl)cc1)C(F)(F)F (centres undefined)	?	?
Cc1ccc2[nH]c(C)cc(=S)c2c1	?	?
COc1cc(OC)c(NC(=O)Nc2ccccc2OCc2cc(=O)n3cc(C)ccc3n2)cc1Cl	-7%	-11%
O=c1[nH]c(=S)[nH]c2c1C(c1ccc(F)cc1)OC(CCC(F)(F)F)C2 (centres undefined)	i	8%
NC(=O)c1ccc(NC(=O)CC23CC4CC(CC(Br)(C4)C2)C3)cc1	i	-12%
COc1ccc(CCN2C(=O)C3CC=C(C)CC3C2=O)cc1OC (centres undefined)	/	-11%
CC1CCN(S(=O)(=O)N2CCN(C(=O)c3ccc4c(c3)OCO4)CC2)CC1	4%	-4%
Cc1ccc(NC(=O)CSc2nnc(C3CC3)n2CC2CCCO2)cc1C (centres undefined)	-11%	-6%
CN1CCN(NC(=O)CC(C)(C)C)CC1	i	-4%
COc1ccc(C(C(=O)NC2CCCCC2)N(C(=O)CCl)c2ccccc2Cl)cc1 (centres undefined)	-15%	-18%
Cc1ccc(S(=O)(=O)N(C)CC(=O)N2CC(C)OC(C)C2)cc1 (centres undefined)	-1%	-14%
C[C@H](CO)N1C[C@H](C)[C@@H](CN(C)Cc2ccc(Cl)c(Cl)c2)Oc2c(NS(=O)(=O)c3ccc(F)cc3)cccc2C1=O	i	-25%
CC(C)N(Cc1ccccc1)C(=O)CN1c2cccc3cccc(c23)S1(=O)=O	-23%	-12%

Remaining list, next part
SMILES	Vaccinia mCherry	VACV Venus inh
CCCC(=O)Nc1ccc(-c2csc(NNC(C)=O)n2)cc1	i	-9%
Cc1ccc(C(C)C)c(OCCSc2nc(-c3cccs3)nc3cc(=O)[nH]n23)c1	-3%	-8%
CCCCC(Sc1nc(N)c(NC(=O)c2ccc(OC)cc2)c(=O)[nH]1)C(=O)O (centres undefined)	0%	1%
CCCCn1c(N)c(N(CC(C)C)C(=O)c2ccc(N3C(=O)CCC3=O)cc2)c(=O)[nH]c1=O	-15%	-10%
COc1ccc(N2CC(C(=O)O)CC2=O)cc1 (centres undefined)	-15%	-8%
COCCNC(=O)/C(C#N)=C/c1ccccc1Br	-11%	-4%
O=C(C[n+]1c(Cl)ccc2ccccc21)c1ccc2ccccc2c1	-14%	-12%
COc1ccc(CN2C(=O)C(CC(=O)NCCCCc3ccccc3)CC(C(=O)N(C(C)C)C(C)C)=C2C)cc1 (centres undefined)	?	?
NC(=O)c1ccccc1NC(=O)c1ccc(-c2ccc(Br)cc2)o1	-9%	-12%
O=C(NCC1CCCO1)C(c1ccccn1)N(Cc1ccccc1Cl)C(=O)CN1C(=O)c2ccccc2S1(=O)=O (centres undefined)	i	-3%
O=C(CSc1nc(O)c(C(c2ccccc2)c2ccccc2)c(=O)[nH]1)N1CCOCC1	i	-17%
COc1ccc(SCC(=O)c2cc(C)c(OC(=S)N(C)C)c(C)c2)cc1	-4%	-13%
COc1ccc(C2(C)NC(=O)N(CC3CCCCC3)C2=O)cc1 (centres undefined)	-4%	-13%
O=[N+]([O-])c1ccc(Oc2ccc(-c3cnc4ccccc4n3)cc2[N+](=O)[O-])cc1	-1%	-8%
O=C(Nc1ccccc1)C1=C[C@H](c2coc3ccccc3c2=O)C[C@H](OCCCCO)O1	5%	-12%
COC(=O)Cn1c(=NC(=O)c2ccc(Cl)s2)sc2cc(F)ccc21	-3%	-4%
COc1ccc(CN(C)c2ccc(S(=O)(=O)N3CCN(C)CC3)cc2[N+](=O)[O-])cc1OC	-5%	-16%
C=CCn1c(O)c(C(CC)=NCc2ccc3c(c2)OCO3)c(=O)[nH]c1=O	-14%	-22%
Cc1ccc(S(=O)(=O)C2(C(=O)Nc3ccc(Cl)c(C(F)(F)F)c3)CC2)cc1	-12%	-11%
CC(C)C1C(=O)N(Cc2cn(Cc3ccco3)nn2)CCS(=O)(=O)N1Cc1ccc(-c2ccc(Cl)cc2)cc1 (centres undefined)	?	?
CCOC(=O)c1c(N)n(C2CC(C)(C)NC(C)(C)C2)c2nc3ccccc3nc12	?	?
Cc1ccc(C2CN(C)C3(C(=O)Nc4ccccc43)C23COc2ccccc2C3=O)cc1 (centres undefined)	?	-29%
CCCCCNC(=O)C(c1ccncc1)n1c(=O)c(-c2ccco2)nc2ccccc21 (centres undefined)	-11%	-11%
COc1ccc(N(CC2CO2)S(=O)(=O)c2ccc(C)cc2)cc1 (centres undefined)	i	-7%
Cn1ccnc1SCC(=O)Nc1ccc(Cl)cn1	i	-10%

Further records follow.
SMILES	Vaccinia mCherry	VACV Venus inh
COc1ccc(OC)c(C2=NS(=O)(=O)N(C)C(C(=O)N3CCC4(CC3)OCCO4)=C2)c1	-3%[7.34 µM]	1%[7.34 µM]
O=C1NC[C@@H](CCCCN2C[C@H](Cc3ccc(O)cc3)N(CCc3ccccc3)C(=O)C2=O)N(CCc2ccc(O)cc2)C1=O	-3%	3%
O=C(Nc1nc2ccccc2n1CCOc1ccc(Cl)cc1)c1ccco1	?	-15%
Cc1cccc(NC(=S)Nn2cnnc2)c1C	-14%	2%
O=C(CNCc1ccccc1)Nc1ccc(F)cc1	-4%	-5%
COc1cc(C(=O)Nc2nc(N)n(-c3ccccc3)n2)cc(OC)c1OC	3%	-3%

2 successive compounds out of the list so far:
SMILES	Vaccinia mCherry	VACV Venus inh
O=C(CNCc1ccccc1)Nc1ccc(F)cc1	-4%	-5%
COc1cc(C(=O)Nc2nc(N)n(-c3ccccc3)n2)cc(OC)c1OC	3%	-3%
